# Compound activity (PubChem)
# Cruzain Triton: inhibitors of Trypanosoma cruzi cruzain with detergent | P25779 | purified cruzain, Z-FR-AMC fluorescence, 0.01% Triton | Potency, µM, inactives show max response, negative = inhibition, most hits filed as inhibitors | 200,000 compounds, 0.43% hits | AID 1478;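 also: plate controls were neutral wells for no effect and buffer without enzyme for full effect; nearly all actives have a fitted effect of over 40% in size; top concentration of the series not given in the record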
# Target sequence (P25779 123-467 limits assumed): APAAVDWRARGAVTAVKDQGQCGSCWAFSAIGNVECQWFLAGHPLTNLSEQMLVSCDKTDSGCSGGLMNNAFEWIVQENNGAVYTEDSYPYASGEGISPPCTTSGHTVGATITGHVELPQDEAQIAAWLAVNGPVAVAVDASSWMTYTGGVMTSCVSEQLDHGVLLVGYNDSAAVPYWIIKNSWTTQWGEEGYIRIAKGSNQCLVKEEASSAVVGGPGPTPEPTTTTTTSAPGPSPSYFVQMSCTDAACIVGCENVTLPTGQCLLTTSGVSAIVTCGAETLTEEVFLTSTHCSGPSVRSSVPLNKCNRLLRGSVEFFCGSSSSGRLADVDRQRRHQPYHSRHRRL
#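 Sodium acetate buffer (100 mM, pH 5.5) containing 5 mM DTT and 0.01% Triton X-100 hosted 1.5 nM cruzain and test compound for 15 min at room temperature. Cleavage of 2 uM Z-FR-AMC was then tracked by fluorescence.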
# RE007 growth inh: less growth of the S. pombe RE007 Vpr strain; 360,000 compounds, 0.21% hits; S. pombe RE007 Vpr strain, BacTiter-Glo ATP luminescence, 24 h; control for the full effect not named in the record; Potency, µM (series often up to 92.2 µM), without a hit: at the top dose activity change, negative = less growth; active = well fitted falling curve with a large enough effect; inconclusive = small, poorly fitted or top-dose-only effect; inactive = no such curve, though single readings can be large or run the other way;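 also: % is scaled to controls: 0 for no effect and ±100 for the full control effect; nearly all actives have a fitted effect of over 50% in size; the assay follows cell death caused by Vpr and the record does not say whether a fall means rescue or toxicity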
#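 Fission yeast strain RE007, carrying one chromosomally integrated HIV-1 vpr copy, was seeded at OD 0.01 in PMG+AL medium with 23 nL pinned compound. After 24 h at 30 °C and 99% humidity, viability was read by BacTiter-Glo luminescence.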
# NS1 function inh: blocks influenza NS1 protein function; 270,000 compounds, 0.4% hits; S. cerevisiae slowed by influenza A NS1, growth recovery by OD600; AID 2326; Potency, µM (series often up to 46.1 µM), for the others: at the highest dose activity, positive = more growth; active means well fitted rising curve with a large enough effect; inconclusive means small, poorly fitted or top-dose-only effect; inactive means no such curve, though single readings can be large or run the other way; also: nearly all actives have a fitted effect of over 50% in size
#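 Compounds were scored for reversing the slow growth caused by influenza A NS1 in S. cerevisiae, measured by optical density at 600 nm. Assay medium contained 2% galactose at pH 6.0; NS1-free yeast of the same strain were the positive control.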
# Marburg entry inh: blocks Marburg virus binding to or entry into cells; Marburg virus pseudotyped entry inhibition, cell reporter; control for the full effect not named in the record; about a third of the inactives were read at about 46 µM; Potency, µM (doses to about 37.8 µM), without a hit: at the top dose activity change, negative = inhibition, hits mostly inhibitors; 300,000 compounds, 1.8% hits; active = well fitted inhibition curve with a large enough effect; inconclusive = small, poorly fitted or top-dose-only effect, or effect the other way; inactive = flat fitted curve, though single readings scatter; tested in HEK293 cells; about a fifth of its hits are not listed in these tables; also: % is scaled to controls: 0 for no effect and ±100 for the full control effect; luciferase read-out
# LASV entry inh: blocks Lassa virus binding to or entry into cells; 300,000 compounds, 1.2% hits; Potency, µM (doses to about 37.9 µM), for the others: at the top dose activity change, negative = inhibition, most hits filed as inhibitors; Lassa virus pseudotype entry inhibition, cell reporter; control for the full effect not named in the record; active means well fitted inhibition curve with a large enough effect; inconclusive means small, poorly fitted or top-dose-only effect, or effect the other way; inactive means flat fitted curve, though single readings scatter; tested in HEK293 cells; also: % is scaled to controls: 0 for no effect and ±100 for the full control effect; nearly all actives have a fitted effect of over 50% in size; luciferase read-out
# 2A StopGo: FMDV 2A StopGo reporter, luciferase signal. Potency, µM (series often up to 57.9 µM), for inactives: at the top dose signal change, negative = less light. 410,000 compounds, 1.2% hits. human cells with a luciferase reporter of 2A StopGo recoding; control for the full effect not named in the record; active = well fitted falling curve with a large enough effect; inconclusive = small, poorly fitted or top-dose-only effect; inactive = no such curve, though single readings can be large or run the other way; tested in HEK293T cells; also: % is scaled to controls: 0 for no effect and ±100 for the full control effect; nearly all actives have a fitted effect of over 45% in size; luciferase light after 4 h
# SARS PLP yeast: inhibitors of SARS-CoV papain-like protease in yeast. AID 485353. 330,000 compounds, 0.19% hits. Potency, µM (titrated, usually from 32.9 µM), without a hit: top-dose activity, positive = growth rescue. S. cerevisiae expressing SARS-CoV PLpro, growth rescue; control for the full effect not named in the record; active means well fitted rising curve with a large enough effect; inconclusive means small, poorly fitted or top-dose-only effect; inactive means no such curve, though single readings can be large or run the other way; also: 0% is about no effect; nearly all actives have a fitted effect of over 55% in size; growth read by luminescence after 48 h
# Cruzain inh noDet: cruzain (T. cruzi) inhibition without detergent; P25779; purified cruzain, Z-FR-AMC fluorescence, no detergent; Potency, µM, for inactives: max response, negative = inhibition, hits mostly inhibitors; 200,000 compounds, 2.3% hits; AID 1476;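 also: plate controls were enzyme without inhibitor for no effect and buffer without enzyme for full effect; nearly all actives have a fitted effect of over 40% in size; top concentration of the series not given in the record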
#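 Purified cruzain at 1.5 nM, pre-incubated 15 min with compound at room temperature in 100 mM sodium acetate pH 5.5, 5 mM DTT, 0.00005% Triton X-100. Reaction started with 2 uM Z-FR-AMC; AMC fluorescence increase over 60 s gives rate.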
# * marks the source's active call; other numbers are inactive results; ? = inconclusive; . = not tested or not shown; & = joins results of further samples; [ ] = remark or other dose. Unless noted, calls follow the shape of the dose curve; as a rule, active = well fitted curve in the direction sought with a large enough effect; inconclusive = small, poorly fitted or top-dose-only effect, or another doubt; inactive = no such curve, though single readings can be large; an effect the other way counts as inactive or inconclusive. Potency is read from the fitted curve at half-maximal effect. No enrichment for hits (roughly 4.6% active in at least one column).
Molecule	Cruzain Triton	RE007 growth inh	NS1 function inh	Marburg entry inh	LASV entry inh	2A StopGo	SARS PLP yeast	Cruzain inh noDet
Cc1[nH][nH]c(=O)c1C(c1c(C)[nH][nH]c1=O)c1cn(Cc2ccc(Cl)c(Cl)c2)c2ccccc12	-2.4%	4%	5%	8.2µM*	?	?	11%	?
CC(=O)c1ccc(NC(=O)CSc2nc(Nc3ccccc3)nc(N3CCOCC3)n2)cc1	.	2%	-6%	?	-3%	-26%	?	.
CCCN=C1NC(=O)C(CC(=O)NCCc2ccc(OC)c(OC)c2)S1 (stereo not drawn)	1.7%	2%	-3%	16%[46.1 µM]	-2%	-1%	15%	-5%
CCOC(=O)N1CCN(S(=O)(=O)c2cc(-c3nn4c(C)nnc4c4ccccc34)ccc2C)CC1	4.4%	21%	?	?	-26%	2%	6%	-8%
Cc1cc(C(=O)N/N=C\C(Br)=C\c2ccccc2)c(C)o1	.	-3%	.	?	0%	7%	-12%	.
CC1(C)CCCN1CCC(C(N)=O)(c1ccccc1)c1ccccc1	.	-7%	.	?	3%[46.1 µM]	-14%	.	.
COc1ccc(NS(=O)(=O)c2cc(NC(=O)c3cnc(C)cn3)ccc2N2CCCCC2)cc1	-0.9%	5%	-1%	?	?	71%[activator]	-5%	-8%
N#CCCn1nc(-c2ccc(Cl)cc2)cc1Nc1ccccc1NC(=O)C(F)(F)F	-13%	-7%	-34%	17%	18%	-5%	-8%	16%
COc1ccc(N2Cc3cccc(C(=O)N4CCN(C(=O)c5ccco5)CC4)c3C2=O)cc1	-6.9%	3%	?	.	.	-11%	-6%	-4%
Cc1csc2nc(CSc3ccc(Cl)cc3)cn12	-3.9%	-19%	-40%	?	?	-7%	-15%	-9%
C=CCNCCOCCOc1ccccc1-c1ccccc1	.	3%	5%	.	.	-8%	-2%	.
OC(c1cccc(Cl)c1)c1nccc2ccccc12 (stereo not drawn)	.	-1%	-21%	.	.	-25%	1%	.
CCCN(CCC)CCCNc1ccc(C(=O)Nc2cccc(OC)c2)cc1[N+](=O)[O-]	.	-4%	.	?	-19%	-13%	1%	.
COCC(=O)N1CCC(Oc2ccc(C(=O)NCc3cc(C(C)C)no3)cc2)CC1	.	1%	-16%	-22%[46.1 µM]	4%	-2%	3%	.
COc1cc2c(cc1OC)-c1cc(NC3CCCCCC3)nc(=O)n1CC2	-23%	-3%	-26%	12%	-9%	2%	-1%	0%
CCn1c2ccccc2c2nnc(N3CCN(c4ccc(F)cc4)CC3)nc21	-2.4%	.	.	.	2%[46.1 µM]	-5%	.	-3%
COc1nccc(C(F)(F)F)c1C(=O)NC(=O)Nc1ccccc1	.	8%	4%	.	.	-18%	0%	.
COc1ccc(C(=O)NCc2cn3ccsc3n2)cc1OC	-1.2%	1%	9%	.	.	-14%	3%	-7%
COc1ccccc1S(=O)(=O)CC(O)COc1ccccc1Cl (stereo not drawn)	.	-10%	-2%	1%[46.1 µM]	21%[46.1 µM]	-1%	?	.
Cc1cc2ccccn2c1C(=O)c1ccc(S(=O)(=O)N(C)C)cc1	.	4%	.	-2%[46.1 µM]	-13%[46.1 µM]	?	0%	.
O=C(CSc1nncn1-c1cccnc1)Nc1cccc(C(F)(F)F)c1	.	1%	5%	-6%[46.1 µM]	14%	-14%	0%	.
Cc1c(NC(=O)C(C)OC(=O)c2ncc(Cl)c(Cl)c2Cl)c(=O)n(-c2ccccc2)n1C (stereo not drawn)	.	-3%	.	-6%	-6%	-27%	-1%	.
Cc1ccc(S(=O)(=O)NCC(=O)OCC(=O)c2ccc(Br)s2)cc1	?	0%	-9%	-1%	?	22%	-3%	-29%
COC(=O)c1ccccc1NC1=C/C(=N\S(=O)(=O)c2cccs2)c2ccccc2C1=O	1.6%	-29%&-17%	4%	3.7µM*	4.5µM*	2.5µM*	-12%	?
COC(=O)c1ccccc1OCCCN(C)C	5.2%	-7%	12%	24%	3%	-14%	4%	14%
Clc1ccccc1-c1nn2c(-c3ccccn3)nnc2s1	-4.1%	-10%	8%	?	?	10%	3%	-7%
COc1cc(/C=C(\C#N)C(=O)NCC2CCCO2)c([N+](=O)[O-])cc1OC (stereo not drawn)	3.5%	14%	10%	?	-11%	-17%	20%	2%
COC(=O)c1ccc(CC(C(=O)c2ccccc2)N(C)C)cc1 (stereo not drawn)	.	4%	-2%	.	.	63%[activator]	4%	.
COc1cc(NC(=O)N[C@@H](Cc2c[nH]c3ccccc23)C(=O)O)c(C(=O)O)cc1OC	.	12%	10%	1%	6%	4%	3%	.
CCCCC(=O)/C=C/n1c(=S)oc2ccccc21	-0.6%	-12%	-31%	18µM*	14%	?	7%	-7%
O=S(=O)(Cc1ccccc1)Nc1ccc(F)cc1	.	-18%	1%	?	3%[46.1 µM]	45%[activator]	-1%	.
CS(=O)(=O)N1CCN(c2ccccc2[N+](=O)[O-])CC1	.	2%	6%	-7%[46.1 µM]	8%	-13%	0%	.
CCC(=O)NC(Nc1sc2c(c1C(=O)OC)CCCC2)(C(F)(F)F)C(F)(F)F	-0.7%	0%	15%	1%	-12%	-24%	1%	-2%
COc1ccc(OC(C)C(=O)Nc2ccccc2F)cc1 (stereo not drawn)	.	2%	-2%	-12%[46.1 µM]	-1%	-10%	-1%	.
CC(C)c1csc(CN2CCN(Cc3ccccc3)C(CCO)C2)n1 (stereo not drawn)	.	-1%	2%	0%[46.1 µM]	?	9%	1%	.
Cc1cc(C(C)(C)C)cc(C)c1S(=O)(=O)N1CC(=O)Nc2ccccc21	.	0%	1%	-35%	11µM*	-20%	-15%	.
CC1CCN(C(=O)C2CCN(C(=O)c3cc4sccc4n3Cc3ccc(F)cc3)CC2)CC1	-4.8%	12%	-50%	?	?	?	3%	?
O=C(NCC1CCOCC1)c1cc(COc2ccc(F)cc2F)on1	.	11%	-5%	.	.	-17%	3%	.
Cc1ccc(C(=O)COC(=O)c2cn3ccccc3n2)cc1	.	14%	1%	.	.	71%[activator]	0%	.
O=C(NCC(c1cccnc1)N1CCN(c2ccccc2F)CC1)c1cccc(Cl)c1 (stereo not drawn)	-1.0%	-2%	-35%	?	?	?	-21%	-2%
COc1ccc(NC(=O)CSc2oc(-c3ccco3)nc2S(=O)(=O)c2ccccc2)c(OC)c1	0.4%	.	.	-17%[46.1 µM]	-3%[46.1 µM]	-22%	.	8%
COc1ccccc1CNC(=O)CCN1C(=O)c2ccccc2C1=O	.	-5%	2%	-23%	7%	7%	0%	.
CCCCNc1nc2ccccc2nc1Cl	.	-11%	0%	1%[46.1 µM]	?	0%	0%	.
O=C(OCn1nnc2ccccc2c1=O)C12CC3CC(CC(O)(C3)C1)C2	.	5%	.	?	2%	-12%	-3%	.
COc1ccc2c(CC(=O)OCC(=O)NC(N)=O)coc2c1	.	0%	-2%	.	.	-13%	0%	.

# Looked up by compound from the entries so far:
Molecule	Cruzain Triton	RE007 growth inh	NS1 function inh	Marburg entry inh	LASV entry inh	2A StopGo	SARS PLP yeast	Cruzain inh noDet
Cc1cc(C(C)(C)C)cc(C)c1S(=O)(=O)N1CC(=O)Nc2ccccc21	.	0%	1%	-35%	11µM*	-20%	-15%	.
COc1ccccc1CNC(=O)CCN1C(=O)c2ccccc2C1=O	.	-5%	2%	-23%	7%	7%	0%	.
O=C(NCC(c1cccnc1)N1CCN(c2ccccc2F)CC1)c1cccc(Cl)c1 (stereo not drawn)	-1.0%	-2%	-35%	?	?	?	-21%	-2%
CCC(=O)NC(Nc1sc2c(c1C(=O)OC)CCCC2)(C(F)(F)F)C(F)(F)F	-0.7%	0%	15%	1%	-12%	-24%	1%	-2%

# The listing picks up with the four entries that preceded the break.
Molecule	Cruzain Triton	RE007 growth inh	NS1 function inh	Marburg entry inh	LASV entry inh	2A StopGo	SARS PLP yeast	Cruzain inh noDet
COc1ccccc1CNC(=O)CCN1C(=O)c2ccccc2C1=O	.	-5%	2%	-23%	7%	7%	0%	.
CCCCNc1nc2ccccc2nc1Cl	.	-11%	0%	1%[46.1 µM]	?	0%	0%	.
O=C(OCn1nnc2ccccc2c1=O)C12CC3CC(CC(O)(C3)C1)C2	.	5%	.	?	2%	-12%	-3%	.
COc1ccc2c(CC(=O)OCC(=O)NC(N)=O)coc2c1	.	0%	-2%	.	.	-13%	0%	.
Cc1ccccc1OC(=O)C1C(c2ccccc2)C(C(=O)O)C1c1ccccc1 (stereo not drawn)	0.9%	14%	-1%	-13%	3%	-24%	8%	17%
COc1cc(C)nc(Oc2ccc(OCCOc3ccc(C)cc3)nn2)n1	3.2%	-14%	-13%	20%	-12%	-19%	10%	?
Cc1ccc2c(c1)c(=O)c(C(=O)c1ccc3c(c1)OCO3)cn2Cc1cccc(F)c1	-1.2%	.	.	?	-17%[46.1 µM]	0%	.	?
COC(=O)c1cc(Br)c(=O)n(-c2nccs2)c1	-4.4%	0%	-2%	-11%	-10%	-11%	2%	-25%
O=c1c([N+](=O)[O-])c[nH]c2ccccc12	-2.3%	-13%	7%	0%	1%[46.1 µM]	7%	-4%	11%
O=C(CSc1nccn1-c1cccc(Cl)c1)Nc1ccc2c(c1)OCO2	-4.1%	.	.	.	13%[46.1 µM]	6%	.	-10%
